# Marburg entry – blocks Marburg virus binding or cell entry. hit rate 6.5% among 18,000. Marburg virus pseudotype entry/binding inhibition, cell-based; control for the full effect not named in the record; many of its hits are not listed in these tables. AID 720532. Potency, µM (top dose mostly 49.2 µM), without a hit: top-dose activity change, negative = inhibition, usual class: inhibitors; active means well fitted inhibition curve with a large enough effect; inconclusive means small, poorly fitted or top-dose-only effect; inactive means no such curve, though single readings can be large or run the other way; tested in HEK293 cells; note: luciferase read-out
# Lassa entry – Lassa virus entry inhibition | Lassa virus pseudotyped entry inhibition, cell-based qHTS; control for the full effect not named in the record; many of its hits are not listed in these tables | Potency, µM (highest dose often 49.2 µM), for the others: at the top dose activity change, negative = inhibition, actives largely listed as inhibitors | hit rate 4.1% among 18,000; active = well fitted inhibition curve with a large enough effect; inconclusive = small, poorly fitted or top-dose-only effect; inactive = no such curve, though single readings can be large or run the other way; tested in HEK293 cells; note: luciferase read-out
# Active calls of the source: *; ? = inconclusive; / = no result given; & = joins results of further samples; [ ] = another dose, or the depositor's remark. % is set by controls: 0 for no effect and ±100 for the full control effect; potency is the fitted concentration of half-maximal effect.
# Results follow in this order: Marburg entry | Lassa entry
O=C(O)C1=CCNCC1
  -17%&4%&14% | 4%&-8%&2%
COc1c(O)c2c(=O)cc(OC)c3c4c(OC)cc(=O)c5c(O)c(OC)c(C[C@@H](C)OC(=O)c6ccccc6)c(c(c1C[C@@H](C)OC(=O)Oc1ccc(O)cc1)c23)c54
  ? | 32µM*
COC(=O)Nc1nc2ccc(Oc3ccc(NC(=O)Nc4cc(C(F)(F)F)ccc4F)cc3)cc2s1
  ? | 6%
C[C@H]1[C@@H](c2ccccc2)Oc2c(Cl)cccc2S(=O)(=O)N1Cc1cccc(Cl)c1
  ? | -28%
Cc1nc(C)n(CC(=O)N2CCOc3ccc(CN4CCN(C)C[C@@H]4c4ccccc4)cc3C2)n1
  -5% | -8%
O=C1Nc2cc(Cl)c(Cl)cc2N2CCNC[C@H]12
  ? | 11%
O=C(O)C(Cc1cc(I)c(O)c(I)c1)c1ccccc1 (stereo not given)
  27% | ?
C[C@H]1C[C@@H]2[C@H]([C@@H](O)C[C@@]3(C)[C@H]2CC[C@]3(O)C(=O)COC(=O)CCC(=O)O)[C@@]2(C)C=CC(=O)C=C12
  -17% | 14%
O=C(OCc1cn([C@H]2CN(C(=O)C3CCCCC3)[C@@H](c3ccccc3)C[C@H]2O)nn1)c1ccccc1
  ? | -28%
C=C1C([C@@]2(C)C(OC(C)=O)CC(=O)O[C@@](C)(COC(C)=O)C2CC(=O)OC)C(OC=O)C(OC(=O)C(O)C(C)CC)[C@]2(C)C(c3ccoc3)CC(=O)C12O (stereo not given in full)
  ? | ?
CC1C(=O)N(Cc2cn(CCC3OCCO3)nn2)CCS(=O)(=O)N1Cc1ccc(-c2cccc(N(C)C)c2)cc1 (stereo not given)
  10% | -7%
O=c1c(O)c(-c2ccc(O[C@@H]3O[C@H](CO)[C@@H](O)[C@H](O)[C@H]3O)c(O)c2)oc2cc(O)cc(O)c12
  -4% | 38%[activator]
CN(C(=O)Cc1ccc(Cl)c(Cl)c1)[C@H](CN1CCCC1)c1cccc(N=C=S)c1
  ? | ?
c1cncc(C2=NCCC2)c1
  12% | -2%
CN(C)c1ccc(-c2cncnc2NCc2ccccc2)cc1
  -25% | -8%
COc1cc2oc(=O)cc(CN3CCCC3)c2cc1Cl
  23% | 11%
Cc1c(C(=O)NCC(C)(C)N2CCOCC2)cnn1-c1ncc2c(n1)-c1ccccc1CCC2
  -21% | -14%
COc1ccc2cc1Oc1cc3c(cc1OC)CC[N+](C)(C)[C@H]3Cc1ccc(cc1)Oc1c(OC)c(OC)cc3c1[C@@H](C2)[N+](C)(C)CC3
  11% | 5%
Cc1cc2c(nc1C)CCCN2CC(O)CN1CCN(C)CC1 (stereo not given)
  18%[8.59 µM] | -17%[8.59 µM]
Cc1cnc(C)c(-c2cccc3c2OC(CNC(=O)/C=C/c2ccncc2)C3)n1 (stereo not given)
  -8% | -6%
O=C(O)c1cn(-c2ccc(F)cc2)c2cc(N3CCNCC3)c(F)cc2c1=O
  -10% | 2%
O=C1C=CC2=C3c4cc(O)c(O)cc4C[C@@]3(O)COC2=C1
  ? | -14%
COc1cc2c3cc1Oc1cc(ccc1O)CC1c4c(cc(OC)c(O)c4Oc4ccc(cc4)CC3N(C)CC2)CC[N+]1(C)C (stereo not given)
  -4% | 2%
CC[C@@H](C)CCCCC(=O)N[C@H](CCN)C(=O)N[C@@H](C(=O)N[C@H](CCN)C(=O)N[C@@H]1CCNC(=O)C([C@@H](C)O)NC(=O)[C@@H](CCN)NC(=O)[C@@H](CCN)NC(=O)[C@@H](CC(C)C)NC(=O)[C@@H](Cc2ccccc2)NC(=O)[C@@H](CCN)NC1=O)[C@@H](C)O (stereo not given in full)
  -11% | -10%
NS(=O)(=O)c1ccc(Nc2ncc(-c3ccccc3)o2)cc1
  10% | -19%
C[C@H]1CC[C@@H]2[C@@H](C)C(=O)O[C@H]3O[C@@]4(C)CC[C@H]1[C@@]32OO4
  -13%[17.8 µM] | -9%[17.8 µM]
CCc1cc(C(=O)NCCN2Cc3ccccc3OC(c3ccsc3)C2)n(C)n1 (stereo not given)
  -12% | 3%
Cc1cc2c(c(=O)o1)[C@H]1O[C@](c3ccsc3)(Cc3cc(C#N)ccc31)O2
  ? | -9%[8.59 µM]
CC(=O)c1ccc(NC(=O)OCCN2CCN(Cc3ccccc3)CCC2=O)cc1
  34%[activator] | 17%
COC(=O)CC1C(C)(C)C(OC(C)=O)C2CC3=C4CC(=O)OC(c5ccoc5)[C@]4(C)CCC3[C@@]1(C)C2=O (stereo not given in full)
  -20% | -8%
COc1ccc(-c2ccc(CN3C(C)C(=O)N(Cc4cn(CCC5OCCO5)nn4)CCS3(=O)=O)cc2)cc1OC (stereo not given)
  -21% | 15%
OC[C@H]1O[C@@H](n2cnc3c(N[C@H]4C[C@H]5CC[C@@H]4C5)ncnc32)[C@H](O)[C@@H]1O
  8% | 7%
CCOC(=O)CN1C(=O)[C@@]2(CC(C)=CC[C@@H](COc3ccccc3)O2)c2ccccc21
  -20%[8.59 µM] | /
CC(C)C(C)(C)C(C)(C)C(C)(C)S
  -7%[107 µM] | -20%[107 µM]
CCCC[C@]12Cc3cc(C#N)ccc3[C@H](O1)c1c(c3ccccc3oc1=O)O2
  -8%[8.59 µM] | 7%[8.59 µM]
CCOc1cc(/C=C(\C#N)C(N)=O)cc(CSc2ccccc2)c1O
  10% | -12%
O=C(CCc1cccnc1)NCC1Cc2cccc(-c3ncccn3)c2O1 (stereo not given)
  -22% | -7%
NC(=O)c1cccc(Nc2nccc(Nc3cccc(F)c3)n2)c1
  -60% | 32%[activator]
CC12CCC3C(CC3(C)C)C(C)(CCC1=O)O2 (stereo not given)
  8% | -1%
CC(C)(C)n1nc(-c2ccc(Cl)cc2)c2c(N)ncnc21
  39%&-10%[activator] | 6%&-1%
Fc1ccc(-c2cc(-c3cn[nH]c3-c3ccccn3)ccn2)cc1
  8% | 57%
C[C@H](CCC(=O)O)C[C@H](C)C[C@H](C)C(=O)/C=C(\O)[C@H](C)C[C@H](C)C/C=C/[C@@H](C)[C@@H](O)[C@@H](C)[C@@H](O)C[C@@H]1CC[C@@](C)([C@H]2CC[C@@](C)([C@@H](C)O)O2)O1
  -1% | -3%
C=CCCC1CN(Cc2ccc(OC)cc2)S(=O)(=O)c2c(F)cccc2O1 (stereo not given)
  5% | -3%
N[C@@H](C(=O)O)c1ccc(C(=O)O)cc1
  2%&3% | 4%&-4%
COc1ccccc1-c1ccnc(-n2ncc(C(=O)N(C)C(C)c3ccon3)c2C2CC2)n1 (stereo not given)
  -1% | 7%
COc1ccc(CN2Cc3ccccc3OC(c3ccccc3OC)C2)cc1O (stereo not given)
  ? | ?
OC[C@H]1O[C@H](n2cnc3c(NC4CCCC4)nc(Cl)nc32)[C@@H](O)[C@@H]1O
  6% | 1%
F/C(COc1ccc2c(c1)[nH]c1ccccc12)=C1/CN2CCC1CC2
  13µM* | ?
CC(=O)N1C(=O)NC(C)=C(C#N)C1c1ccccc1 (stereo not given)
  -10%[8.59 µM] | 11%[8.59 µM]
COc1ccc(CNc2nc(NCc3ccc(OC)cc3)c3ncn(C(C)C)c3n2)cc1
  ? | ?
COc1ccc(-c2nn3ncccc3c2-c2ccnc(Nc3ccc(F)c(F)c3)n2)cc1
  ? | /
COc1cccc([C@@H]2Oc3ccc(OC)cc3C[C@H]2OC(=O)N[C@H](C)C2CCCCC2)c1
  -1% | -3%
c1cc(CN2CCCCC2)cc(OCCCNc2nc3ccccc3s2)c1
  16µM* | ?
CC(=O)O[C@H]1CC[C@@]2(C)C(=CC[C@H]3[C@@H]4CC[C@H](C(C)=O)[C@@]4(C)CC[C@@H]32)C1
  -6% | -1%
CC(CCC(=O)OC[C@H]1O[C@H](C#Cc2ccccc2)C=C[C@H]1Oc1ccc(C)cc1)=NOC[C@@H](O)COCc1ccco1
  -10%[8.59 µM] | -20%[8.59 µM]
CCCCN1CC(N2CCN(CCO)CC2)CS1(=O)=O (stereo not given)
  42%[activator] | 39%[activator]
CCCCCCN1CCN(C2CN(CCCC)S(=O)(=O)C2)CC1 (stereo not given)
  -16% | 7%
O=S(=O)(c1c(F)cccc1F)N(CCc1ccc(F)cc1)C[C@@H](O)COCc1ccccc1
  ? | /
Cc1ccccc1-c1cncnc1NCCN1CCOCC1
  -26% | -29%
C[N+]1(C)CCN(c2ccccc2)CC1
  14% | -15%

# Whole records, quoted from the list. Screens in order: Marburg entry | Lassa entry
# Cc1c(C(=O)NCC(C)(C)N2CCOCC2)cnn1-c1ncc2c(n1)-c1ccccc1CCC2 across the screens: -21% | -14%
# CC12CCC3C(CC3(C)C)C(C)(CCC1=O)O2 (stereo not given) across the screens: 8% | -1%

# (continued)
# Results follow in this order: Marburg entry | Lassa entry
COC(=O)[C@@H]1CCCN1C(=O)c1cc(NC(=O)C2CCC2)c2c(c1)nc(-c1ccncc1)n2C
  -2% | 2%
COc1ccc(C(=O)NCC2Cc3c(F)ccc(-c4nc(C)cnc4C)c3O2)cc1F (stereo not given)
  -5% | -19%
COc1ccc2c(c1)O[C@@H](c1ccc3c(c1)OCO3)[C@H](OC(=O)N[C@H]1CCCc3ccccc31)C2=O
  -11% | -2%
Cc1ncc2c(c1CNC(=O)c1cncs1)CCN(C(=O)c1cccc(-c3cccc(F)c3)c1)C2
  0% | 7%
O=C(NCC1Cc2cccc(-c3cncnc3)c2O1)C1CC1 (stereo not given)
  -12% | -9%
C/C=C(/C(=C/C)c1ccc(O)cc1)c1ccc(O)cc1
  0%[17.8 µM] | ?
CCC[C@H]1CN(Cc2ccccc2)C(=O)[C@H]1CC(=O)NC
  20% | 14%
C=CCNC(=O)[C@H]1C=C(OC)C(=O)C[C@H](c2ccccc2)[C@H]1C
  9%[8.59 µM] | -24%[8.59 µM]
CC(C)CC1C(=O)N(Cc2cn(Cc3ccco3)nn2)CCS(=O)(=O)N1Cc1ccc(-c2ccccc2)cc1 (stereo not given)
  ? | -21%
COCCN1C(=O)NC(c2cccc(C(F)(F)F)c2)C(C(C)=O)=C1C (stereo not given)
  11%[8.59 µM] | -24%[8.59 µM]
CCCCCC(=O)N1C[C@H](O)[C@@H](n2cc(C3CC3)nn2)C[C@H]1c1ccc(Cl)cc1
  -8% | 0%
COc1ccc(CN2c3ccccc3C(=O)CS2(=O)=O)cc1OC
  8% | -6%
CCCCCC(=O)N1C[C@@H](O)[C@H](n2cc(-c3ccc(F)cc3)nn2)C[C@H]1c1ccc(OC)cc1
  16% | 17%
CCc1nn2ncccc2c1-c1ccnc(NC2CC2)n1
  -14% | /
CC(=O)NCCc1c[nH]c2ccccc12
  7%&25%&2% | -9%&3%&0%
CCCCCC(=O)c1cc(CC(C(=O)OC)C(=O)OC)cc2cc(OC)c(OC)cc12
  19%[8.59 µM] | -5%[8.59 µM]
OCCNCCCOc1cccc(Cl)c1Cl
  6.3µM* | ?
CCc1cn([C@H]2C[C@H](O)[C@@H](CO)O2)c(=O)[nH]c1=O
  -9% | 5%
Cc1cc(O)c(C=O)c2c1C(=O)Oc1c(CO)c(O)c3c(c1O2)C(O)OC3=O (stereo not given)
  ? | /
COc1ccc([C@H]2c3cc(OC)c(OC)cc3C[C@@H](C)[C@@H]2C)cc1OC
  -21% | -19%
CCCCN1CC[C@@H]2C=CC[C@H](C(=O)OC)[C@@H]2C1=O
  7% | 7%
Cc1cnc(SCc2ccccn2)nc1C1CCCN(C(=O)c2noc3c2CCCC3)C1 (stereo not given)
  ? | ?
CC1(C)OC2C(CO)OC(n3cnc4c(=O)[nH]cnc43)C2O1 (stereo not given)
  ? | -12%
O=C(O)c1ccccc1-c1c2cc(I)c(=O)c(I)c-2oc2c(I)c(O)c(I)cc12
  -21% | -24%
CCOC(=O)[C@H](CCc1ccccc1)N[C@@H](C)C(=O)N1CCC[C@H]1C(=O)O
  23% | -12%
CCCCCC1C(=O)CCC1CC(=O)O (stereo not given)
  6% | -3%
c1cncc(-c2ccc3ncnc(N4CCNCC4)c3c2)c1
  13% | -2%
CN(Cc1ccon1)C(=O)c1cnn(-c2nccc(-c3ccc4c(c3)OCO4)n2)c1C1CC1
  -20% | 3%
O=C1NC(=O)C(=O)C(=O)N1
  1% | 4%
CSc1nnc2c(n1)C[C@H](c1ccccc1)[C@@H](C)[C@@H](C(=O)N1CCCC1)C2
  14%[8.59 µM] | 16%[8.59 µM]
COc1cc(N2CCN(C(C)C)CC2)ccc1Nc1nc(Nc2cccc3ncccc23)c2cc[nH]c2n1
  ? | ?
CC[N+](CC)(CC)CC
  55%[activator] | 4%
Nc1ccc2c3c(cccc13)C(=O)NC2=O
  ? | ?
COc1cccc(C2(CC(=O)N3CCCCC3CO)CC(=O)N(C)C2=O)c1 (stereo not given)
  -28% | -6%
OC[C@@H]1[C@@H](c2ccc(Cl)cc2)C(c2ccccc2)=NN1c1ccccc1
  -19% | ?
OCC1OC(Oc2cccc3cccnc23)C(O)C(O)C1O (stereo not given)
  7% | -7%
Oc1cc2c(cc1O)C(c1ccccc1)CNCC2 (stereo not given)
  11%&7% | 1%&0%
Cc1cc(OI)c(C(C)C)cc1-c1cc(C(C)C)c(OI)cc1C
  20%&-14% | -3%&-4%
C[n+]1cccc(C(=O)[O-])c1
  -4% | -16%

# Retrieved by compound from the entries so far:
# Results follow in this order: Marburg entry | Lassa entry
COc1cc(N2CCN(C(C)C)CC2)ccc1Nc1nc(Nc2cccc3ncccc23)c2cc[nH]c2n1
  ? | ?
Nc1ccc2c3c(cccc13)C(=O)NC2=O
  ? | ?
C[n+]1cccc(C(=O)[O-])c1
  -4% | -16%

# From PubChem

# A portion of the library; count on the stated rates, not on these rows.
